Screens deposited in PubChem by National Center for Advancing Translational Sciences (NCATS).
Six1-Eya2 inh = blocks human Six1 binding to Eya2 | Q15475+O00167 | AlphaScreen GST-Six1/His-Eya2 binding, biochemical; hits give low values; control for the full effect not named in the record | activity change, % (test concentration not listed) | 360,000 compounds, 0.56% hits | AID 651725; in the data active = activity change below about -65%; inconclusive = about -30% to -65%; inactive = above about -30%; also: % is scaled to controls: 0 for no effect and ±100 for the full control effect
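Six1/Eya2 binding was read as AlphaScreen signal after compounds were pinned into GST-Six1 plus His-tagged Eya2 (5X stock 250/500 nM) in pH 8.0 Tris/NaCl/TCEP buffer, beads added, then incubated 1 h, 37 C, dark.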
CtBP-E1A blk = CtBP/E1A binding inhibition. AlphaScreen GST-E1A/His-CtBP binding, 1536-well; hits give low values; control for the full effect not named in the record. activity change, % (test concentration not listed). 340,000 compounds, 0.49% hits. AID 651724; in the data active means activity change below about -65%; inconclusive means about -30% to -65%; inactive means above about -30%; also: % is scaled to controls: 0 for no effect and ±100 for the full control effect
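In 5 uL wells, 23 nL compound meets equimolar GST-E1A and His-CtBP (5X stock 125 nM each) for 2 h, 37 °C. Beads (5X, 50 ug/mL) then 1 h, 37 °C, dark.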
D2 agonist = human D2 receptor agonism in beta-arrestin assay; P14416; DiscoveRx PathHunter D2 beta-arrestin, luminescence, 90 min; 100% = 57 uM dopamine signal; activation, % (test concentration not listed); 360,000 compounds, 0.084% hits; in the data active = activation above about 40%; inconclusive = about 15% to 40%; inactive = below about 15%; also: compound concentration not given in the record; the text of the record calls up to 30% inactive
Target sequence (P14416 whole entry, looked up): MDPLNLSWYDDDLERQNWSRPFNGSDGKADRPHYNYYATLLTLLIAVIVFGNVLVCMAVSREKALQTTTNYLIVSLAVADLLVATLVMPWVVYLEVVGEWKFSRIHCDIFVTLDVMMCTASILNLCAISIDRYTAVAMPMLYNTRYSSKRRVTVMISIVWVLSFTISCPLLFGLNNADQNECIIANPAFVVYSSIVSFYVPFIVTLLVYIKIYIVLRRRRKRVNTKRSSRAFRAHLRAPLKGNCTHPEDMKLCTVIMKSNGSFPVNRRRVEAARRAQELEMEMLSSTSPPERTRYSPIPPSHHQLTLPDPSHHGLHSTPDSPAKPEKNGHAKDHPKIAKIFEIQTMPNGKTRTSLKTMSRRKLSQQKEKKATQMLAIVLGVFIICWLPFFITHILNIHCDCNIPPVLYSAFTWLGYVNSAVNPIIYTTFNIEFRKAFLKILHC
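DiscoveRx PathHunter D2 beta-arrestin cells (2,100/well) attached overnight, then compound-stimulated 90 min at 37 C in HBSS/10 mM HEPES/0.1% Tween-20 buffer; beta-galactosidase complementation read by luminescence after 1 h at ambient temperature. Dopamine 57 uM final (EC100) as control.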
TRPML1 ag = human mucolipin-1 channel agonism; Q9GZU1; TRPML1-expressing cells, Ca2+ dye fluorescence, FDSS; host cell line not named in the record; reference of the full effect not given here; activation, % (test concentration not listed); 410,000 compounds, 0.12% hits; in the data active = activation above about 50%; inconclusive = about 30% to 50%; inactive = below about 30%; also: 0% is about no effect; the text of the record puts the active cut at 80%
Target sequence (Q9GZU1 whole entry, looked up): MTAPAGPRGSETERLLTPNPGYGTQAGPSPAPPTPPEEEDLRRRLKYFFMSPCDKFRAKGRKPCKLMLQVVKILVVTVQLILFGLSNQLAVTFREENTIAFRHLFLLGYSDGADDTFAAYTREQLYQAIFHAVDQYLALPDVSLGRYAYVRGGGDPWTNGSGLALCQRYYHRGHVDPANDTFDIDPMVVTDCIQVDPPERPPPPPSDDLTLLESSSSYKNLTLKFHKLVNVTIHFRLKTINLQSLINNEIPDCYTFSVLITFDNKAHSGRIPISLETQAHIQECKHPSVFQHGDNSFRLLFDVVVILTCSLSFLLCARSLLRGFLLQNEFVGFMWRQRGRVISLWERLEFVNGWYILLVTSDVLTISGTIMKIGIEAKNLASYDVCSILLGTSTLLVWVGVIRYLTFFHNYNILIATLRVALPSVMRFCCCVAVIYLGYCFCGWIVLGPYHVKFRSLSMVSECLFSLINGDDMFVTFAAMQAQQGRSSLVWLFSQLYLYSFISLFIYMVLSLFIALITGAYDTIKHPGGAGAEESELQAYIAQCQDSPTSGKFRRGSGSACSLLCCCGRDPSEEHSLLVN
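TRPML1-DL cells, Tet-induced overnight (~16 h, 37 degrees C), loaded 45-90 min at room temperature with Ca8 no-wash calcium dye plus quencher. FDSS fluorescence: 10 s baseline, compound pin-transfer, 110 s agonist read, then EC80 54-4 (4uM final) and 110 s antagonist read.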
PINK1 modulator = modulators of PINK1 expression. PINK1 immunofluorescence, high-content cytometry, 24 h. 410,000 compounds, 0.2% hits. Potency, µM (top dose mostly 76.6 µM), inactives show at the highest dose activation (PINK1 increase), hits mostly activators; active = well fitted activation curve with a large enough effect; inconclusive = small, poorly fitted or top-dose-only effect; inactive = flat fitted curve, though single readings scatter; cell line not stated here;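 also: potency is read from the fitted curve at half-maximal effect; % of control where 0% means no effect; nearly all actives have a fitted effect of over 65% in size; a mitochondrial uncoupler was the plate control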
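Measures PINK1 amount and localization on or inside mitochondria by immunofluorescence. Stable cells get compounds at 5 concentrations for 24 hours before fixation and staining; CCCP controls included.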
D2 potentiator = positive allosteric modulators of human D2 dopamine receptor | 360,000 compounds, 0.23% hits | AID 624464 | potentiation, % (test concentration not listed) | DiscoveRx D2 beta-arrestin cells, luminescence, 90 min; 100% = 57 uM dopamine signal; active = potentiation of 50% or more; inconclusive = 30% to 50%; inactive = 30% or less;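 also: compound concentration not given in the record; tested on top of an EC20 dose of dopamine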
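PathHunter D2 cells, attached overnight at 37 deg C, received compound in DMSO plus dopamine at EC20 (50 nM final) for 90 min at 37 deg C. Beta-arrestin recruitment was read as luminescence after 1 h with detection reagent at ambient temperature.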
The depositor's hits bear a star; ? = inconclusive; · = not tested or not shown; [ ] = another dose, or the depositor's remark.

SMILES | Six1-Eya2 inh | CtBP-E1A blk | D2 agonist | TRPML1 ag | PINK1 modulator | D2 potentiator
CNC(=O)/C(C#N)=C/c1c(N(Cc2ccccc2)Cc2ccccc2)nc2c(C)cccn2c1=O | -9.8 | -16.8 | -2.1 | 0.4 | 0.7% | -6.9
CCOC(=O)c1c(C)[nH]c(C(=O)OCC(=O)Nc2cc(C)nn2-c2ccccc2)c1C | 0.0 | -1.8 | 4.0 | 0.0 | 0.5% | 3.5
CC(=O)c1ccc(OCC(=O)N2CCCC2c2ccc3c(c2)OCCCO3)cc1 (stereo not given) | -4.1 | -2.3 | -0.3 | 0.8 | 3.4% | -1.6
O=C(Cn1nnc(-c2ccccc2)n1)N/N=C/c1cccc([N+](=O)[O-])c1 | 0.0 | 0.0 | -0.6 | -0.7 | -0.9% | -0.1
Cn1cccc1/C=N/N1CCN(Cc2ccc(Cl)cc2)CC1 | ? | -11.8 | -5.4 | 1.0 | -0.6% | -19.9
Cc1ccc(CN2CCSc3ccc(C(=O)N4CCN(c5ncccn5)CC4)cc32)cc1 | -2.6 | 0.6 | -3.4 | 0.8 | ? | -8.9
O=S(=O)(c1ccccc1)c1nc(-c2ccco2)oc1N1CCCCC1 | -1.2 | -3.4 | -4.6 | 1.6 | 2.0% | -1.1
O=C1c2ccccc2NC(c2ccc(O)cc2)N1c1ccccc1 (stereo not given) | 4.2 | 3.0 | 0.4 | 1.2 | 3.4% | -4.1
O=C(CSc1ccc2c(c1)OCCO2)Nc1ncc(Cl)cc1Cl | -0.6 | 0.9 | 5.9 | 3.3 | 0.9%[38.3 µM] | -2.9
CCc1nnc(NC(=O)CSc2nnc(COc3ccccc3)n2-c2ccc(C)cc2)s1 | 4.8 | 0.3 | -2.0 | 0.7 | -0.4% | -30.5
CCN1CCN(Cc2nc3ccc([N+](=O)[O-])cc3c(=O)n2-c2ccc(OC)cc2OC)CC1 | 2.3 | -1.4 | 2.8 | 0.3 | -0.1% | 1.5
COc1ccc(Cn2c(/C=C/c3ccccc3)nc3ccccc32)cc1 | 33.5 | 24.3 | -3.7 | 0.9 | ? | -11.9
CC(C)COc1ccc(C(=O)OCC(=O)NCCC2=CCCCC2)cc1 | -1.2 | 11.9 | -1.9 | 1.4 | 3.2% | 3.3
Cc1cc(=O)n2nc(N3CCCC(C(=O)N4CCN(C)CC4)C3)sc2n1 (stereo not given) | -8.5 | -0.3 | -2.1 | 0.8 | 0.0% | 7.3
CN(Cc1ccccc1)C(=O)CCC1CCN(C(=O)CCC(F)(F)F)CC1 | 3.5 | 4.7 | 9.6 | 1.8 | -1.7% | 7.3
COc1ccc(-c2cc(C(=O)N/N=C(\C)c3cccnc3)c3ccccc3n2)c(OC)c1 | 0.5 | -9.3 | 2.0 | 0.0 | 0.6% | -12.7
CCCCn1c(N)c(N(CCOC)C(=O)CSc2nc3ccc(C)cc3[nH]2)c(=O)[nH]c1=O | 5.7 | 0.5 | -2.8 | 0.4 | 0.7% | 1.5
COc1cc(NC(=O)c2cc(OC)c(OC)c(OC)c2)ccc1NC(=O)c1cccs1 | -14.4 | 6.0 | -3.0 | -0.4 | 0.5% | 0.4
Cc1cccc(NC(=O)CCOc2ccccc2)c1C | 3.7 | -14.9 | 1.2 | 0.0 | -0.4% | -4.8
COc1ccccc1NC(=O)c1ccccc1S(=O)(=O)c1ccc([N+](=O)[O-])cc1 | -6.4 | -2.3 | 10.8 | 0.2 | -2.9% | ?
Cc1cc(C)c(C(=O)N(CCN(C)C)CC2CCCN(Cc3ccccc3F)C2)o1 (stereo not given) | 0.5 | -18.6 | -2.4 | 0.4 | -0.1% | -29.8
COc1ccc(NC(=O)OCCn2c([N+](=O)[O-])cnc2C)cc1 | 4.9 | 2.0 | 0.9 | -0.4 | 3.3% | -3.1
CC(NC(=O)CN(C)S(=O)(=O)c1cnc[nH]1)c1ccccc1 (stereo not given) | 1.3 | 8.6 | -2.4 | -0.5 | 9.7% | -3.3
COC1CCCN(C(=O)c2ccc3oc(Cc4ccc(Cl)cc4)nc3c2)C1 (stereo not given) | 4.5 | 5.8 | -0.5 | 0.8 | 2.1% | 7.1
NC(=O)CSc1nnc2ccc(-c3ccc(F)cc3)nn12 | -1.3 | -10.9 | -3.2 | · | -0.1% | -6.5
Cn1c(=O)c2cc(S(=O)(=O)N3CCOCC3)ccc2n(C)c1=O | 9.7 | 0.0 | -1.2 | -0.5 | 4.8%[38.3 µM] | -29.9
CCCCn1c(N)c(N(CCOC)C(=O)c2ccc3c(c2)C(=O)N(c2ccccc2Cl)C3=O)c(=O)[nH]c1=O | 1.8 | · | -3.8 | 0.1 | -0.4% | -1.7
COc1ccc(Cn2c(=S)[nH]c3cc(OC)c(OC)cc3c2=O)cc1 | 27.4 | -17.1 | -2.2 | 0.0 | 6.9% | -1.6
Brc1ccccc1C1CC(c2ccccc2)=Nc2ccccc2N1 (stereo not given) | -1.5 | 1.4 | -2.3 | -1.2 | 3.5% | 3.5
O=c1c2[nH]c3ccc(F)cc3c2ncn1C1CCCCC1 | -9.5 | -1.3 | -0.5 | -0.4 | 4.9% | -15.9
CC(=NCc1ccco1)C1=C(O)c2ccccc2C1=O | -14.9 | 5.0 | -1.6 | 0.4 | 8.8%[38.3 µM] | -17.3
COc1ccc(NC(=S)N(CCCN2CCCC2)Cc2ccco2)cc1 | -3.2 | 4.7 | -5.2 | -0.1 | 2.2% | -15.8
Cn1c(=O)c2cc(NC(=O)CCc3cccc(Cl)c3)ccc2n1Cc1cccc(C(F)(F)F)c1 | 2.1 | 2.6 | -4.0 | 0.1 | 8.8% | -13.0
COc1ccc(NC(=O)C2CCN(S(C)(=O)=O)CC2)cc1OC | 5.0 | -2.3 | -6.3 | 0.3 | 2.0% | -13.0
CC(C)c1ccc(C(=O)NNC(=O)c2ccncc2)cc1 | -2.5 | 14.2 | -0.7 | 1.0 | -0.2% | -0.9
COc1cccc(-c2cc(C(=O)N3CCOCC3)no2)c1 | 5.3 | 9.9 | 1.2 | 1.6 | 2.3% | -3.6
COC(=O)C1=C(C)N(C(C)C)C(=O)C1(NC(=O)C1CCCCC1)C(F)(F)F (stereo not given) | -0.1 | 8.6 | -2.8 | 0.6 | 11.9%[38.3 µM] | -10.2
CCN(CC)C(=O)COc1ccc2oc(-c3ccco3)cc(=O)c2c1 | -8.2 | -2.6 | -1.8 | -0.5 | -1.0% | 18.7
COc1ccc(CN2CCNC(=O)C2CC(=O)N(C)C2CCOCC2)cc1OC (stereo not given) | -6.1 | -2.7 | -0.5 | -0.2 | -0.1% | -8.9
O=C(CSc1nccn1-c1ccccc1)N1CCc2ccccc21 | -12.6 | -13.2 | -1.0 | 1.3 | -0.7% | -28.8
COc1ccc(C(=O)Nc2nc3ccc4nc(C)sc4c3s2)cc1 | 2.3 | 2.0 | -0.1 | -0.8 | 1.3% | -1.9
CC(C)N(CCCNC(=O)C1CCN(S(=O)(=O)N2CCOCC2)CC1)Cc1ccccc1 | 11.2 | 8.1 | -0.2 | 0.2 | 0.1% | -0.5
Cc1nc(N2CCOCC2)c2c(C)c(C(=O)Nc3ccccc3Cl)sc2n1 | 14.9 | 0.3 | 1.5 | 0.2 | -1.3% | 2.4
CC1(C)Cc2nc3nc(SCC(=O)NCCc4ccccc4)n(-c4ccccc4)c(=O)c3cc2CO1 | 4.4 | 5.1 | -3.1 | -0.5 | 23.1%[38.3 µM] | -9.9
CCOc1ccc(S(=O)(=O)N2CCOCC2)cc1NC(=O)CN1C(=O)NC(CC)(c2ccccc2)C1=O (stereo not given) | 6.8 | 7.2 | 1.1 | 0.6 | 2.0% | 0.3
COC(=O)Cc1c(C)c2ccc(OCC(=O)N3CCC(C)CC3)c(C)c2oc1=O | 3.9 | -4.8 | 1.0 | -0.1 | -0.2% | 17.9
C=CCNc1nc(C(=O)OCC(=O)NCc2ccccc2OC)cs1 | 3.9 | -24.6 | -3.6 | 0.3 | 0.5% | -6.8
COc1ccccc1CC(=O)NCCc1ccccc1 | 2.3 | -13.4 | -0.6 | 0.6 | 0.6% | -5.2
COCCN1C(=O)c2oc3c(C)cc(C)cc3c(=O)c2C1c1cccc(O)c1 (stereo not given) | 5.0 | 2.6 | 1.0 | 1.1 | -0.1% | -1.9
O=[N+]([O-])c1cccc(/C=N\N2CCN(c3ccc(Cl)cc3)CC2)c1 | -2.8 | -4.6 | -5.5 | -0.5 | 10.7% | -35.1
CC(c1ccon1)N(C)C(=O)c1ccc2nc(Cc3cccc(Cl)c3)oc2c1 (stereo not given) | 4.0 | 0.1 | 1.4 | 1.8 | -2.3% | -16.5
C=CC[C@@H](CC(=O)N[C@H](CO)Cc1ccccc1)C(=O)N[C@H](COC(=O)[C@@H](CC=C)Cc1ccc(F)cc1)Cc1ccccc1 | -1.1 | · | -5.1 | 0.7 | 3.5% | -13.1
OC(COc1ccccc1Cl)CN1CCN(CC(O)COc2ccccc2Cl)CC1 (stereo not given) | -4.3 | -10.4 | -0.3 | 0.2 | 1.6% | -43.9
Cc1ccc(OCCNC(=O)c2cc(=O)[nH]c3ccccc23)cc1 | 1.2 | · | -4.1 | 2.6 | 1.5% | -0.2
CC1(C)CC(NC(=O)CC(c2ccccc2)c2ccccc2)CC(C)(C)N1 | 4.5 | 8.8 | 2.0 | -0.1 | -1.6% | -5.6
O=C(/C=C/c1ccccc1)NCCS(=O)(=O)N1CCN(c2ccccc2F)CC1 | 12.6 | -20.6 | -0.2 | 0.0 | -0.9% | 12.1
CCOCc1c(C(=O)NCc2ccccc2CN2CCCC2)oc2ccccc12 | -0.5 | 6.4 | -0.7 | 0.0 | 0.6% | -2.1
c1ccc2nc(N3CCOCC3)c(N3CCCC3)nc2c1 | 38.7 | 26.6 | 1.1 | -0.5 | 3.9% | -10.3
C[C@@H]1CN([C@@H](C)CO)C(=O)CCCn2nncc2CO[C@@H]1CN(C)S(=O)(=O)c1cccs1 | 6.3 | 6.6 | -7.9 | -0.6 | -2.2% | 4.9
CN(C)c1cc[n+](CC(=O)Nc2cccc([N+](=O)[O-])c2)cc1 | 8.6 | · | -1.7 | -0.2 | 0.2% | -6.3
Cc1cc(S(=O)(=O)N2CCC3(CC2)OCCN3S(=O)(=O)c2cccs2)ccc1F | -8.7 | 5.5 | -2.7 | 1.5 | -1.9% | -8.4
CC(=O)c1ccc(OCC(=O)NCC2(N3CCCCC3)CCCCC2)cc1 | -2.4 | 6.3 | -0.9 | 0.6 | -0.6% | -5.3

Full records, quoted from the list. Order of values: Six1-Eya2 inh, CtBP-E1A blk, D2 agonist, TRPML1 ag, PINK1 modulator, D2 potentiator
Results for OC(COc1ccccc1Cl)CN1CCN(CC(O)COc2ccccc2Cl)CC1 (stereo not given) = -4.3, -10.4, -0.3, 0.2, 1.6%, -43.9
Results for C[C@@H]1CN([C@@H](C)CO)C(=O)CCCn2nncc2CO[C@@H]1CN(C)S(=O)(=O)c1cccs1 = 6.3, 6.6, -7.9, -0.6, -2.2%, 4.9
Results for Cn1c(=O)c2cc(S(=O)(=O)N3CCOCC3)ccc2n(C)c1=O = 9.7, 0.0, -1.2, -0.5, 4.8%[38.3 µM], -29.9
